# VDR inhibitor: vitamin D3 receptor (human) inhibition; P11473; VDR-SRC2-3 peptide fluorescence polarization, 2 h; Potency, µM, without a hit: max response, negative = inhibition, most hits filed as inhibitors; 0.93% of 400,000 active; AID 504847; active means well fitted inhibition curve with a large enough effect; inconclusive means small, poorly fitted or top-dose-only effect, or another doubt; inactive means no such curve, though single readings can be large or run the other way; further: series mostly up to about 120 µM
# Target sequence (P11473 whole entry, looked up): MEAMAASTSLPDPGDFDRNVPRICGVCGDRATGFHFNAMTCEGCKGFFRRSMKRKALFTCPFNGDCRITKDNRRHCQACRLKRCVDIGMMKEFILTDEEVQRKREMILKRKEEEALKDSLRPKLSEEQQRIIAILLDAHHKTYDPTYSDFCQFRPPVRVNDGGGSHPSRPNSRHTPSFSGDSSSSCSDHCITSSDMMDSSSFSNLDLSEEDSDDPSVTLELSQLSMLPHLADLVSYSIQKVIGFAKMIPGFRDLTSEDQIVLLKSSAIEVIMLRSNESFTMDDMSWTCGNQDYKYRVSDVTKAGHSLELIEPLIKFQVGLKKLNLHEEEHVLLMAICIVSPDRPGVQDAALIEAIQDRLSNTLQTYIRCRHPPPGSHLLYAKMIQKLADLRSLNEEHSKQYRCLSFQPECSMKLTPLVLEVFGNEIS
#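 Fluorescence polarization assay measuring small-molecule disruption of VDR binding to the coregulator peptide SRC2-3. Compounds were pin-transferred (23 nl) into the reagent mix and incubated 2 h at room temperature before reading.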
# Numbers without * were called inactive; ? = inconclusive; & = joins results of further samples. On the % scale 0 is the no-effect control and ±100 the full control effect; potency means the concentration at half of the fitted maximal effect. Not all compounds are listed, so the mix of outcomes need not match the whole.
VDR inhibitor	SMILES
0%	COc1ccc(NC(c2nnc(-c3ccccc3)o2)c2ccccc2F)cc1Cl (stereo not drawn)
?	O=C(Nc1nc2cc3c(cc2s1)OCCO3)C1=COCCO1
1%	CC(C)Cc1csc(NC(=O)c2ccc(Cl)cc2)c1C(=O)O
-6%	Cc1c(NS(=O)(=O)c2cc(C(=O)O)ccc2Cl)c(=O)n(-c2ccccc2)n1C
3%	COc1ccc2oc(C(=O)N3CCCc4ccccc43)c(C)c2c1
6%	C=CCC1CCC(=O)N2CCCC12 (stereo not drawn)
14%	COc1ccc(C(CNC(=O)Cc2ccc(Cl)cc2)N2CCOCC2)cc1 (stereo not drawn)
-8%	O=C(COc1coc(CN2CCc3ccccc3C2)cc1=O)Nc1ccc(Cl)cc1
-7%	COc1ccccc1NC(=O)CSc1ncc2c(n1)-c1ccccc1N(Cc1ccccc1C)S2(=O)=O
-10%	Cc1c(Br)c([N+](=O)[O-])nn1C(C)C(=O)NCC1CCCO1 (stereo not drawn)
-8%	COC(=O)N/N=C1\CCCc2c(C)cc(C)cc21
-12%	CCSc1nc2sc3c(c2c(=O)n1-c1ccccc1)CCN(C(C)C)C3
-9%	O=C(OCC(=O)N1CCCCCC1)c1cccs1
-9%&10%	COc1ccc(-n2c(=O)c3ccccc3n(CC(=O)Nc3ccccc3OC)c2=O)cc1
8%	COc1ccc(F)c(C2C(C#N)=C(N)Oc3n[nH]c(C(C)(C)C)c32)c1 (stereo not drawn)
4%	Cc1ccc(O)c(-c2n[nH]c3c2C(c2ccccc2F)N(Cc2ccco2)C3=O)c1 (stereo not drawn)
9%	CCS(=O)(=O)N1CCc2cc(C(=O)Nc3cccc(NC(C)=O)c3)ccc21
-14%	O=C(COC(=O)CCC(=O)Nc1nccs1)NCc1ccco1
-4%	COc1ccc(C2CC(c3cccs3)=NN2C(=O)CSc2nncn2C)cc1OC (stereo not drawn)
-2%&1%	CC1(C)Oc2ccc3ccc(=O)oc3c2CC1O (stereo not drawn)
-3%	COc1cccc(/C=C/C(=O)OCC(=O)c2ccccc2)c1OC
15%	Cc1ccc(C)c(NC(=O)Cn2cc(S(=O)(=O)NC(C)C)c(S(=O)(=O)NC(C)C)c2)c1
-10%	Cc1[nH]c(=O)[nH]c(=O)c1/C=N/NC(=O)[C@H](CC(C)C)NC(=O)OC(C)(C)C
-6%	COCCn1c(Cc2cccn2C)nnc1SCC(=O)Nc1nccs1
-14%	Cc1onc(-c2c(F)cccc2Cl)c1C(=O)OCC(=O)NC(=O)NCC(C)C
-6%	CN1C(=O)C(=C2CCCCCC2)SC1=S
6%	Cc1ccc(C)c(C(=O)C(C)OC(=O)c2cccn2C)c1 (stereo not drawn)
-17%	COc1cc(OC)cc(-c2cc(N)n(S(=O)(=O)Cc3ccccc3)n2)c1
8%	CCCn1c(C(O)c2ccc3c(c2)OCO3)nc2ccccc21 (stereo not drawn)
1%	CC(Oc1ccc(Cl)cc1Cl)c1nc(-c2ccc(NC(=O)c3ccco3)cc2)no1 (stereo not drawn)

# Exported comma-delimited: part of the list above.
molecule,VDR inhibitor
O=C(COC(=O)CCC(=O)Nc1nccs1)NCc1ccco1,-14%
O=C(Nc1nc2cc3c(cc2s1)OCCO3)C1=COCCO1,?
Cc1[nH]c(=O)[nH]c(=O)c1/C=N/NC(=O)[C@H](CC(C)C)NC(=O)OC(C)(C)C,-10%
Cc1ccc(C)c(C(=O)C(C)OC(=O)c2cccn2C)c1 (stereo not drawn),6%
CCSc1nc2sc3c(c2c(=O)n1-c1ccccc1)CCN(C(C)C)C3,-12%

# 3 records picked at random from those above:
VDR inhibitor	SMILES
-8%	O=C(COc1coc(CN2CCc3ccccc3C2)cc1=O)Nc1ccc(Cl)cc1
-6%	Cc1c(NS(=O)(=O)c2cc(C(=O)O)ccc2Cl)c(=O)n(-c2ccccc2)n1C
-14%	Cc1onc(-c2c(F)cccc2Cl)c1C(=O)OCC(=O)NC(=O)NCC(C)C

# (further entries)
VDR inhibitor	SMILES
15%	O=C(CSc1ncnc2ccccc12)Nc1cccc(S(=O)(=O)N2CCCC2)c1
-14%	CCOc1ccc(NC(=O)CN(C)S(=O)(=O)c2ccc3c(c2)CCC(=O)N3)cc1
21%	Fc1ccc(-c2cc(C(F)(F)F)nc(-n3cncn3)n2)cc1
-6%	COc1ccc(NC(=O)C2CCN(S(=O)(=O)c3c(C)noc3/C=C/N(C)C)CC2)cc1
-4%	O=C(/C=C/c1cccc(F)c1)N1CCc2ccccc21
-6%	CCN(CC)S(=O)(=O)c1cc(C(=O)O)c(Cl)cc1Cl
15%	COc1ccc(NC(=O)c2c(C)oc3ccc(O)c(CN4CCCCCC4)c23)cc1
-29%	O=C(CSc1n[nH]c(=O)n1Cc1ccco1)c1ccc(F)cc1
7%	Cc1ccc(C(=O)N(C)Cc2ccc(N3CCOCC3)cc2)cc1S(=O)(=O)NCc1ccccc1
-6%	CCOC(=O)c1c(C)n(C)c2ccc(OCC(O)Cn3c(C)nc4ccccc43)cc12 (stereo not drawn)
-8%	CCOc1ccccc1CNC(=O)C1CCCN(c2ncnc3c2nc2n3CCCCC2)C1 (stereo not drawn)
2.8µM*	Clc1cc(Cl)c(OCC#CI)cc1Cl
-18%	Cc1ccc(-n2cc(CN3CCC(CO)(Cc4cccc(C(F)(F)F)c4)CC3)cn2)cc1
13%	O=C(CCC(=O)NNC(=O)c1ccccc1[N+](=O)[O-])NCc1ccccc1
-14%	Cc1ccc(NNC(=O)c2ccc(Cl)cc2)nn1
-13%	CCCS(=O)(=O)N1CCN=C1SCc1ccc(F)cc1
4%	Cc1ccc(C(=O)OC(C)CN2CCN(C)CC2)cc1 (stereo not drawn)
-18%	CCOc1ccc(N(CC(=O)NCCc2ccccc2)S(=O)(=O)c2ccccc2)cc1
25%	N#Cc1ccc(C(=O)N2CCN(c3nc4ccc(F)cc4s3)CC2)cc1
-24%	O=C(Cc1ccccc1)NCc1ccc(-n2cccc2)cc1
8%	Cc1ccc(OCCCn2ccnc2)cc1C
-2%	O=C(CCc1ccccc1)Nc1ccnn1C1CCN(Cc2ccc(OCCO)cc2)CC1
5%	CC1(C)CC(NC(=O)c2cc(S(=O)(=O)N3CCCCC3)ccc2Cl)CC(C)(C)N1
-20%	COC(=O)c1cc(NS(=O)(=O)c2ccc(F)cc2)ccc1N1CCOCC1
-7%	C=CCNC(=O)COc1coc(CN2CCN(C(=O)c3ccco3)CC2)cc1=O
-3%	COc1ccc(-c2nc(C)c(CCNC(=O)C(=O)Nc3cc(C)cc(C)c3)s2)cc1OC
-7%	Cc1ccc(CNC(=O)C2CCCCN2S(=O)(=O)c2ccccc2)cc1 (stereo not drawn)
4%	COc1cc(/C=c2\s/c(=C(/C#N)C(=O)N3CCCC3)n(-c3ccccc3)c2=O)ccc1O
6%	COc1ccccc1NC(=S)Nc1ccc2cn[nH]c2c1
3%	Cn1c(SCC(=O)Nc2nccs2)nnc1C1CC1
-8%	CCOc1ccc(NC(=O)c2cc3c(C)nc4ccccc4c3o2)cc1
-12%	O=C1NC(c2ccccc2OC(F)F)Oc2ccccc21 (stereo not drawn)
-9%	O=C(N/N=C/c1ccc(O)c(O)c1)c1cc(-c2ccccc2)nc2ccccc12
-4%	O=C(CSc1ccccc1)NC(=O)NCc1ccccc1
0%	O=c1c2ccccc2nnn1CCO
-10%	CCN(CC(=O)Nc1ccc(NC(C)=O)cc1)C(=O)c1ccccc1Sc1ccccc1C#N
-4%	Cc1ccccc1NC(=O)c1sc2nc(N3CCOCC3)c3c(c2c1N)CC(C)(C)OC3
-11%	CCc1nc2c3cnn(-c4cc(Cl)ccc4C)c3ncn2n1
?	O=C(CSC1=NCCS1)NC(c1ccccc1)c1ccccc1
12%	Cc1ccc(S(=O)(=O)c2c(Nc3cc(C)ccc3C)sc(C(=O)c3ccc4c(c3)OCO4)c2N)cc1
5%	COc1ccc(NC(=O)N2CCc3ccccc3C2)cc1OC
3%	Cc1ccc(S(=O)(=O)c2[nH]c(-c3ccccc3)nc2SCC(=O)O)cc1
1%	CN(C)S(=O)(=O)NCC1CCCN(Cc2cc3ccccc3s2)C1 (stereo not drawn)
-4%	CCOC(=O)C1(C(=O)OCC)CC1c1ccccc1 (stereo not drawn)
-1%	CCCN1/C(=C(\C#N)C2=NS(=O)(=O)c3ccccc32)N(C)c2ccccc21
19%	COc1cccc(CNC(=O)C2CCN(S(=O)(=O)c3ccc4c(c3)NC(=O)C(C)S4)CC2)c1 (stereo not drawn)
-20%	O=C(c1ccco1)N1CCN(C(=O)c2ccc(-c3cccc(C(F)(F)F)c3)o2)CC1
12%	COc1cccc(NC(=O)CCN2CCC(C(N)=O)CC2)c1
-6%	Cc1ccc(S(=O)(=O)N(C)CC(=O)NCCCc2ccccc2)cc1
10%	CCN(CC)S(=O)(=O)c1ccc(C)c(NC(=S)N2CCN(Cc3ccc4c(c3)OCO4)CC2)c1
-11%	CCOc1cc(C(=O)Nc2ccc(C)cc2O)ccc1OCC(=O)N1CCOCC1
-14%	CCOc1ccc(NC(=O)c2cc(C3CC3)nc3c2cnn3C(C)C)cc1OC
-7%	COc1ccccc1C(CNC(=O)c1cccc(S(=O)(=O)Nc2ccc(F)cc2)c1)N(C)C (stereo not drawn)
-5%	CCc1ccc(-c2nc3cc(NC(=O)c4ccc(C)c(C)c4)ccc3o2)cc1
-9%	COc1cc(CO)ccc1OCc1ccc(Cl)nc1
-3%	Cc1cc(OC(C)C(=O)Nc2cccc(-c3nc4ccccc4o3)c2)cc(C)c1Cl (stereo not drawn)
-8%	Cc1cccc(OCCCC(=O)N2CCCc3ccccc32)c1C
-4%	Cc1ccc(NC2=NCCC2)cc1Cl
10%	Cc1ccc(-n2c(C)cc(/C=N/NC(=O)Cn3c4ccccc4c(=O)c4ccccc43)c2C)cc1
2%	COC(=O)c1ccc(/C=N\NC(=O)c2c(C)nc3ccc(Cl)cn23)cc1

# Copied from the results shown for reference:
VDR inhibitor	SMILES
3%	Cc1ccc(S(=O)(=O)c2[nH]c(-c3ccccc3)nc2SCC(=O)O)cc1
1%	CN(C)S(=O)(=O)NCC1CCCN(Cc2cc3ccccc3s2)C1 (stereo not drawn)
-4%	CCOC(=O)C1(C(=O)OCC)CC1c1ccccc1 (stereo not drawn)

# The results go on:
VDR inhibitor	SMILES
8%	CCn1c(=O)c(C(=O)CC#N)c(N)n(Cc2ccccc2)c1=O
?	CCOC(=O)N1CCN(Cc2ccc(O)c3ncccc23)CC1
-5%	COc1cc(/C=N/N2CCOCC2)ccc1OCc1ccc(Cl)cc1
14%	CCOC(=O)C1CCN(C(=O)c2cccc(Cl)c2)CC1
-6%	Cc1cc(-c2n[nH]c(=S)n2-c2ccccc2)nn1C
6%	Cc1cc(C)cc(N(CCC#N)C(=O)COC(=O)Cn2[nH]c(=O)c3ccccc3c2=O)c1
?	CCOC(=O)N1CCC(NC(=O)CS(=O)(=O)Cc2nc(-c3ccc(OC)cc3)oc2C)CC1
-8%	CC1CCC(NC(=O)CCS(=O)(=O)c2ccc3c(c2)CCN3C(=O)C2CC2)CC1 (stereo not drawn)
7%	O=C(OCCN1C(=O)c2cccc3c(N4CCOCC4)ccc(c23)C1=O)c1ccc(Cl)cc1Cl
-4%	Cc1c(NC(=O)c2ccc3ncccc3c2)c(=O)n(-c2ccccc2)n1C
-1%	COc1ccc(C2=CC3=C(Br)C(=O)C(C)(OC(=O)CCc4ccccc4)C(=O)C3=CO2)cc1 (stereo not drawn)
?	O=C1C(Cl)=C(N2CCCCC2)C(=O)C(Cl)=C1c1cnc(N2CCCCC2)s1
-5%	O=C(NCCCn1ccnc1)c1ccc(F)cc1
4%	CN1C(=O)CSc2ccc(NC(=O)N3CCOCC3)cc21
-5%	O=C(CSCc1ccc(Cl)cc1)Nc1cc([N+](=O)[O-])ccc1O
2%	CCCCN1C(=O)C(O)=C(C(C)=O)C1c1ccccc1 (stereo not drawn)
-1%	Nc1ccc(C(=O)c2cccs2)cc1
-9%	Cc1ccc2nc(SC(C(=O)c3ccccc3)c3ccccc3)nc(C)c2c1 (stereo not drawn)
12%	C[C@H](CO)N1C[C@H](C)[C@@H](CN(C)C(=O)NC2CCCCC2)Oc2c(NC(=O)Nc3ccc(C(F)(F)F)cc3)cccc2C1=O
-11%	COc1ccc(S(=O)(=O)Nc2ccccc2C(=O)N2CCOCC2)cc1C
7%	CCN(CC)C(=O)CSC1=Nc2ccccc2C2=NC(Cc3c[nH]c4ccccc34)C(=O)N12 (stereo not drawn)
-9%	C[C@H](CO)N1C[C@H](C)[C@@H](CN(C)CC2CC2)Oc2c(NC(=O)C3CC3)cccc2C1=O
-18%	CC1CCCCC1NC(=O)CN1C(=O)NC(Cc2ccccc2)(Cc2ccccc2)C1=O (stereo not drawn)
11%	CCn1c2ccccc2c2nn(C)c(=N)nc21
-11%	COc1ccc(N2CC(NC(=O)C3CCCC3)CC2=O)cc1OC (stereo not drawn)
-15%	CC(C)c1nc2oc3c(N(C)CCO)ncnc3c2c2c1CCC2
16%	CCCOC(=O)NC1CCS(=O)(=O)C1 (stereo not drawn)
-14%	Cc1ccc(C(C)C)cc1S(=O)(=O)NCc1cccnc1
-6%	CCCCCCNC(=O)CNC(=S)N(Cc1cccs1)C1CCCCC1

# Screening data (PubChem BioAssay)
